AF4-AF9 inh = MLL-AF4/AF9 protein interaction inhibition; P42568; AlphaScreen, biotin-AF4 peptide binding to FLAG-AF9; inhibition, % at 10 µM; 350,000 tested, 0.47% active; AID 651704;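 active means every replicate reaching a set inhibition limit, whatever the replicate mean, cut at about 25% in these data; inconclusive means mean inhibition reaches that limit but some replicates miss it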;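 further: 0% = plate neutral control median and 100% = total signal loss; the record names both 10 and 1 µM as test concentration; the first replicate is given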
Target sequence (P42568 whole entry, looked up): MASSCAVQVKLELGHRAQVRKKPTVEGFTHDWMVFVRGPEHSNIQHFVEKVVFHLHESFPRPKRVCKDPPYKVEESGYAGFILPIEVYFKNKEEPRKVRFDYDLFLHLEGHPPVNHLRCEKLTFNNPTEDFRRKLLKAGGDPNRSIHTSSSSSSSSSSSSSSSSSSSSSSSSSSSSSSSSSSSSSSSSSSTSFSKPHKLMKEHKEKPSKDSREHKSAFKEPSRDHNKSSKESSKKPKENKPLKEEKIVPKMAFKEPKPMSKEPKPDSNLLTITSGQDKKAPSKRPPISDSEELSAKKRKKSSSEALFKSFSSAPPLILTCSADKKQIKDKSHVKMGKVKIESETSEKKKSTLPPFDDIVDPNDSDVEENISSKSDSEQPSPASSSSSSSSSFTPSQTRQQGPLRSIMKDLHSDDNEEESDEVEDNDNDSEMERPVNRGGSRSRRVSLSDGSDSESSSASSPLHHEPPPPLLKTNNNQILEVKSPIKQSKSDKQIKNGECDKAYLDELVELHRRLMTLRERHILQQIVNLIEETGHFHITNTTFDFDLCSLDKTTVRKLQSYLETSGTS
Beta apoptosis = beta cell apoptosis inhibition; INS-1E cytokine-induced death, ATP luminescence, 48 h; percent of positive-control rescue, neutral wells zero; protection from apoptosis, % (no concentration beside the values); 300,000 tested, 0.8% active; AID 435005;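 active means all replicates at 75% or more, or half of them and the mean; inconclusive means half reach 75% but not the mean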;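 further: 0% = cytokine-treated negative control wells and 100% = positive control rescue; higher means more ATP so stronger rescue from cytokine killing; wells of about 40 µL received 100 nL stock; the first replicate is given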
RanGTP-Imp inh = inhibitors of RanGTP-importin-beta interaction, primary screen, biochemical, FRET, CFP-Ran, YFP-importin-beta, homogeneous | 300,000 tested, 1.1% active | AID 2216 | inhibition, % (concentration not given with the values) | cell-free CFP-Ran/YFP-importin-beta FRET ratio;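 active means most replicates above 15%; inconclusive means exactly half above 15%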;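 further: 0% = DMSO wells and 100% = Ran loaded with GDP instead of GTP; wells of about 40 µL received 100 nL stock; the first replicate is given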
T cruzi inh = blocks replication of Trypanosoma cruzi; AID 1885; inhibition, % (no concentration beside the values); T. cruzi beta-gal in NIH3T3, luminescence, 90 h; 300,000 tested, 1.4% active;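 active means mean inhibition across valid replicates above about 55%, limit read from the data; inconclusive means mean below that limit but half or more replicates reach it; inactive means mean below it, under half of replicates reach it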;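 further: signal also drops with host cell toxicity which is not excluded here; 0% = plate median of DMSO wells and 100% = zero luminescence signal; higher percent means less beta-gal luminescence so fewer parasites; stock transfer was 50 nL into about 50 µL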
ALR H2O2 inh = inhibitors of human sulfhydryl oxidase ALR. 290,000 tested, 3.8% active. purified ALR, DTT oxidation, H2O2 HRP-luminol luminescence. P55789. inhibition, % (test concentration not listed);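 active means mean and each replicate at 75% or more; inconclusive means only one of the two met; inactive means neither met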;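 further: stock transfer was 7.5 nL into about 7.5 µL; 0% = neutral wells and 100% = wells with inactivated enzyme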
Target sequence (P55789 whole entry, looked up): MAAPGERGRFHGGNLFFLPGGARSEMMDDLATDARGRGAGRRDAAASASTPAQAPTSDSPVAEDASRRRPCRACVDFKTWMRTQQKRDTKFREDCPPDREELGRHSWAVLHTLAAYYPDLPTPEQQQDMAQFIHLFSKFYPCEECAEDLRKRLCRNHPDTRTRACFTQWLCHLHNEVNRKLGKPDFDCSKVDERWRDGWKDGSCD
Calb FLC = affects C. albicans growth with fluconazole; C. albicans CaCi-2 (fluconazole-resistant clinical isolate) + fluconazole, Alamar Blue growth, 48 h; growth inhibition, % (test concentration not listed); 300,000 tested, 0.57% active; AID 1979;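 active means most replicates above 75%; inconclusive means exactly half above 75%; inactive means most below 75%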;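 further: all wells also contain fluconazole at 8 µg/ml as a sub-toxic cotreatment; 0% = median of DMSO wells and 100% = median of geldanamycin control wells; wells of about 8 µL received 7.5 nL stock; the first replicate is given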
FGF22 binding = shifts melting point of recombinant human FGF22; calls only at 9.99 µM; 340,000 tested, 1.5% active; Q9HCT0; AID 651658; recombinant FGF22 thermal shift, SYPRO orange fluorescence; percent of sucrose octasulfate shift, DMSO zero;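 active means melting point raised past a set limit in the mean and every replicate; inconclusive means no clear call; three in four hits are not shown here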
Target sequence (Q9HCT0 whole entry, looked up): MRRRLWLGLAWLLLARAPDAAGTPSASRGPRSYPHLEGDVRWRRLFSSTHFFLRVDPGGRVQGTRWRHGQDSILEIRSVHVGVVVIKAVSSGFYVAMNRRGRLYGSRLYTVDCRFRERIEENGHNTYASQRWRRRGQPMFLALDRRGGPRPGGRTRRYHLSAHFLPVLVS
Ecoli rRNA inh = inhibits bacterial ribosomal RNA function over humanized ribosomes | E. coli WT GFP vs humanized-ribosome RFP mutants, fluorescence, 24 h; stronger effect = lower value; DMSO median 0, no signal -100 | GFP signal change (wild-type ribosome), % (no concentration beside the values) | 350,000 tested, 1.6% active | AID 720706;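 active means significant combined selectivity score with lowered wild-type GFP, culture density cut under 30%, mutant RFP and density less affected; inactive means any of these conditions unmet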; further: one replicate is shown; some compounds called inactive have numbers as strong as hits
Ecoli rRNA inh OD600 = recorded beside Ecoli rRNA inh, whose call it bears; OD600 change, %; measured here: OD600 growth;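 optical density of the mix in the first replicate; 0 = DMSO median and -100 = no signal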
Ecoli rRNA inh RFP = further read-out of Ecoli rRNA inh, marked with its call; RFP signal change, %; measured here: RFP humanized mutant strains;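 first replicate; 0 = DMSO median and -100 = no signal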
* marks the source's active call; other numbers are inactive results; i = inactive; u = inconclusive; x = no result given. An excerpt. The share of hits here may be higher or lower than overall.

Compound | RanGTP-Imp inh | Ecoli rRNA inh RFP | T cruzi inh | AF4-AF9 inh | FGF22 binding | Ecoli rRNA inh | Ecoli rRNA inh OD600 | Calb FLC | Beta apoptosis | ALR H2O2 inh
CCCOc1ccc2c3c(c(=O)oc2c1OCCC)CCCC3 | 1.4 | x | 14 | x | x | x | x | 0 | 100* | 5
CCOC(=O)c1cnc2ccc(OCC)cc2c1NCc1ccccc1 | 4.1 | -7.9 | 36 | -6.5 | i | -36 | -36 | -1 | 8 | -25
Cc1ccc2c(c1)N(CC(=O)Nc1ccccc1F)C(=O)CO2 | u | 0.8 | -5 | 0.4 | i | 6 | 5 | -5 | -1 | x
N/C(=N\OC(=O)c1ccccc1Cl)c1cccc([N+](=O)[O-])c1 | -0.6 | -0.7 | -6 | 1.2 | x | 13 | 1 | 3 | 2 | 2
O=C(CNC(=O)c1cccc(F)c1)NC1CC1 | x | 0.8 | x | 0.2 | i | 26 | 26 | x | -3 | -8
OCc1cccc[n+]1Cc1ccccc1 | 8.8 | -2.9 | 5 | 0.0 | i | 3 | 4 | 0 | -4 | -9
Oc1ccc(N=Nc2ccc3c(c2)OCCO3)c(O)c1 | -1.5 | 3.9* | -12 | 0.9 | i | -38* | 2.7* | 3 | 4 | x
CCCN(c1nc(C)cc(OC)n1)S(=O)(=O)c1ccccc1 | 0.1 | -4.6 | 3 | -60 | i | 7 | 1 | -7 | 0 | x
CC(C)NC(=O)Cn1nc(C(F)(F)F)c2c1CCC2 | 6.5 | x | -13 | x | x | x | x | 2 | -4 | 1
CC(C)c1ccc(NC(=O)C2C3C=CC4(O3)C2C(=O)N(CCCN2CCOCC2)C4C(=O)NC2CCCCC2)cc1 (centres undefined) | -2.7 | -0.6 | -8 | -1.2 | i | 7 | 9 | 4 | -4 | -2
CCN1CCN(c2ncc3c(n2)CC(c2ccc(OC)c(OC)c2)CC3=O)CC1 (centres undefined) | 0.2 | x | 6 | x | x | x | x | -11 | 3 | -5
O=C(COc1ccc(Cl)cc1Cl)N1CCNC1=O | x | -1.7 | x | -4.1 | i | -2 | 8 | x | -8 | x
Cc1ccccc1NC(=O)Cc1nc(COC(=O)c2cccnc2Cl)cs1 | x | 3.4 | x | -0.9 | i | 0 | -3 | x | -4 | 32
Cc1ccc(NC(=O)C(C)Sc2nc(-c3ccccc3)cc(=O)[nH]2)cc1 (centres undefined) | 1.0 | 0.2 | -13 | -0.9 | i | 1 | 8 | 21 | 1 | -21
NNc1nc(Nc2ccc([N+](=O)[O-])cc2)nc(N2CCCCCC2)n1 | 9.7 | -0.4 | 49 | 4.6 | i | -10 | -1 | 17 | 18 | -3
O=S(=O)(c1ccccc1)N1CCN(Cc2ccc(Cl)cc2)CC1 | 3.3 | -6.5 | 11 | -7.2 | i | -27 | -31 | -3 | -3 | -34
O=C(Cn1cnc([N+](=O)[O-])c1)Nc1ccccc1C(F)(F)F | -2.3 | 13 | -15 | 2.4 | i | 55 | 7 | -3 | 0 | -1
CCOc1ccc(N(CC)C(=O)COc2cc(=O)n(C)c3ccccc23)cc1 | -2.3 | 3.8 | -3 | 0.2 | i | -11 | -23 | 8 | -1 | -8
CC(C)OC(=O)c1c(NS(=O)(=O)c2ccccc2)sc2c1CCCC2 | 5.2 | x | -6 | x | x | x | x | x | -16 | 26
CC(Oc1ccccc1)c1nnc(SCC(=O)NC2CC2)n1C (centres undefined) | 1.4 | -3.2 | -14 | 0.0 | i | 1 | 11 | 2 | 4 | -1

Copied from above for reference:
Compound | RanGTP-Imp inh | Ecoli rRNA inh RFP | T cruzi inh | AF4-AF9 inh | FGF22 binding | Ecoli rRNA inh | Ecoli rRNA inh OD600 | Calb FLC | Beta apoptosis | ALR H2O2 inh
CCCOc1ccc2c3c(c(=O)oc2c1OCCC)CCCC3 | 1.4 | x | 14 | x | x | x | x | 0 | 100* | 5
CCOC(=O)c1cnc2ccc(OCC)cc2c1NCc1ccccc1 | 4.1 | -7.9 | 36 | -6.5 | i | -36 | -36 | -1 | 8 | -25
Cc1ccc2c(c1)N(CC(=O)Nc1ccccc1F)C(=O)CO2 | u | 0.8 | -5 | 0.4 | i | 6 | 5 | -5 | -1 | x

Retrieved by structure from the entries so far (two):
Compound | RanGTP-Imp inh | Ecoli rRNA inh RFP | T cruzi inh | AF4-AF9 inh | FGF22 binding | Ecoli rRNA inh | Ecoli rRNA inh OD600 | Calb FLC | Beta apoptosis | ALR H2O2 inh
CCCOc1ccc2c3c(c(=O)oc2c1OCCC)CCCC3 | 1.4 | x | 14 | x | x | x | x | 0 | 100* | 5
CC(C)OC(=O)c1c(NS(=O)(=O)c2ccccc2)sc2c1CCCC2 | 5.2 | x | -6 | x | x | x | x | x | -16 | 26

(next part)
Compound | RanGTP-Imp inh | Ecoli rRNA inh RFP | T cruzi inh | AF4-AF9 inh | FGF22 binding | Ecoli rRNA inh | Ecoli rRNA inh OD600 | Calb FLC | Beta apoptosis | ALR H2O2 inh
CCCN1CNC(=S)N(c2ccc(C(=O)OCC)cc2)C1 | 0.8 | x | 3 | x | x | x | x | 7 | -5 | 0
CC(=O)Nc1ccc(OC(=O)Oc2ccc(NC(C)=O)cc2)cc1 | -2.3 | 2.0 | -29 | -2.1 | i | 0 | 10 | x | 0 | 24
CCOC(=O)C/C(N)=N/N(C)c1ncc(C(F)(F)F)cc1Cl | 3.8 | 6.1 | 10 | -1.2 | i | 11 | -1 | 12 | -2 | 13
Cc1ccc(NC(=O)CSc2nc3c(c(=O)[nH]2)CN(Cc2ccc(F)cc2)CC3)cc1C | -2.1 | -3.0 | 0 | 0.1 | i | -12 | -16 | -5 | -8 | -2
CC(C)(C)c1ccc(S(=O)(=O)NCC(=O)Nc2ccc(-c3nc4ccccc4s3)cc2)cc1 | 4.3 | x | 15 | x | x | x | x | -4 | -1 | -17
Cc1ccc(S(=O)(=O)N/N=C(\c2ccccc2)C2CC2)cc1 | 0.8 | 0.2 | 5 | 0.0 | i | 3 | 2 | 4 | 2 | -3
O=C(O)C[C@H]1c2cc(F)ccc2S(=O)(=O)N1C1CCN(Cc2ccccc2)CC1 | -5.5 | 0.0 | -7 | -2.8 | i | 10 | 10 | 4 | -5 | -34
COc1ccc(-c2nn(-c3ccccc3)cc2C(=O)Nc2nccs2)cc1 | 1.5 | x | 19 | x | x | x | x | 0 | 12 | -1
COc1cccc(C(=O)N/N=C(/c2ccccc2)c2ccccn2)c1 | -4.6 | x | 55* | x | x | x | x | 73 | 101* | -3
CCn1cc(C(=O)Nc2ccc(OC)c(S(=O)(=O)N3CCCCC3)c2)c(=O)c2ccc(C)nc21 | -3.4 | -5.6 | -10 | 0.7 | i | -12 | -23 | 2 | 5 | -3
O=C(COC(=O)c1cc([N+](=O)[O-])ccc1N1CCOCC1)NC1CCCCC1 | -0.6 | -0.8 | 0 | 0.7 | i | 1 | 2 | -21 | -1 | 8
Cc1nn(-c2ccccc2)c(C)c1CNC(=O)c1ccc(S(=O)(=O)NCc2ccco2)cc1 | x | x | x | -3.2 | i | x | x | x | -5 | 1
CCOC(=O)c1c(C)[nH]c(C)c1C(=O)COC(=O)c1ccc(O)cc1 | 0.4 | 1.6 | 13 | 3.0 | i | -16 | -17 | 7 | -3 | 3
O=C(NCC1CCCO1)c1ccccc1NS(=O)(=O)c1cccc([N+](=O)[O-])c1 (centres undefined) | x | -1.2 | x | -2.1 | i | 7 | 12 | x | 2 | 12
COc1cccc(C2=NOC(C(=O)NC(C)(C)C)C2)c1 (centres undefined) | 0.5 | x | -12 | x | x | x | x | -5 | -8 | 1
N#Cc1ccccc1CCN1C(=O)c2ccccc2C1=O | 2.2 | 2.3 | -5 | -2.8 | i | 9 | 1 | 15 | -6 | x
Cc1cccc(C(=O)OC(C)CN2CCCC2)c1 (centres undefined) | -2.9 | -3.0 | -8 | 1.2 | i | -4 | 3 | -3 | -5 | 2
COc1ccc(C(=O)C(C)OC(=O)COc2ccccc2)cc1 (centres undefined) | x | 1.4 | x | -2.9 | i | 2 | -4 | x | -6 | 4
CNc1cnn(-c2ccccc2)c(=O)c1Cl | -2.4 | x | -21 | x | x | x | x | -9 | -5 | -1
CCOC(=O)N1CCN(C(=O)C2CC(c3cc(OC)ccc3OC)=NO2)CC1 (centres undefined) | x | x | 5 | x | x | x | x | 9 | -2 | 4
Cc1nc(Nc2ccccc2)[nH]c(=O)c1CCC(C)C | 0.2 | x | -2 | x | x | x | x | -3 | 10 | 14
Cc1ccc(C23CC4CC(CC(C(=O)N5CCN(C)CC5)(C4)C2)C3)cc1 | 1.6 | 15 | 22 | 5.6 | i | -14 | -12 | 0 | -1 | -21
CC(=O)C1C(c2cccc(F)c2)NC(=O)NC1(O)C(F)(F)F (centres undefined) | -3.2 | x | -13 | x | x | x | x | -14 | 2 | -6
CCN(CC)S(=O)(=O)c1ccc(OC)c(NC(=O)c2ccc(=O)[nH]c2)c1 | -1.6 | -2.3 | -4 | -4.9 | i | 9 | -4 | -8 | 1 | -9
CCCNC(=O)CCc1c(C)nc2nc(-c3cc(OC)cc(OC)c3)nn2c1C | 2.6 | x | 2 | x | x | x | x | 3 | -1 | -2
NC(=O)C1CCN(C(c2ccccc2)c2nnnn2C2CCCC2)CC1 (centres undefined) | -1.3 | x | -8 | x | x | x | x | -10 | -2 | -29
CC1CCCC(NC(=O)CCCn2ncn3c(cc4occc43)c2=O)C1C (centres undefined) | -1.4 | 3.6 | -5 | 2.5 | i | 3 | 1 | -31 | 4 | 2
Cc1ccc(NC(=O)COC(=O)C2CCN(c3ccc(C(F)(F)F)cn3)CC2)cc1C | 3.6 | 3.3 | 0 | -0.5 | i | -1 | -18 | x | 1 | 2
COC(=O)C1CSc2[nH]c(=O)sc2C1c1ccc(OC)c(OC)c1 (centres undefined) | 4.2 | x | -5 | x | x | x | x | -2 | -1 | 30
O=c1c(Cl)c(NCc2ccc(F)cc2)cnn1C12CC3CC(CC(C3)C1)C2 | -0.1 | x | 16 | x | x | x | x | 42 | 9 | -1
O=S(=O)([N-]c1nc2ccccc2nc1-[n+]1ccc(-c2ccncc2)cc1)c1ccccc1 | -14 | 0.4 | -18 | -1.4 | i | 20 | 14 | 0 | 0 | x
Cc1ccc(S(=O)(=O)CC(=O)Nc2ccc(S(=O)(=O)Nc3onc(C)c3C)cc2)cc1 | u | x | -20 | x | x | x | x | 3 | x | 39
CC(C)[C@H]1CN(C)CCN1Cc1cn(C)nc1-c1cccc(Cl)c1 | -2.9 | 1.3 | -10 | -2.7 | i | 5 | 0 | 6 | 1 | x
CC(C)/C=C1\CCCCC1N(C)C(=O)NC(C)C (centres undefined) | 2.7 | x | -1 | x | x | x | x | -4 | -1 | -8
COc1ccc(CNCc2cc(C)c(OC)cc2C)c(OC)c1 | 1.5 | 1.3 | 33 | -0.9 | i | 3 | -1 | -12 | 8 | -22

Source: PubChem (Broad Institute)
